# LANA-H2B inh: blocks KSHV LANA binding to histone H2A/H2B; inhibition, % (no concentration beside the values); Q9QR71; cell-free LANA-H2A/H2B peptide, fluorescence polarization; 0.6% of 320,000 active; in the data active = inhibition mostly above about 10%, no sharp cut-off; inactive = mostly below about 6.7%;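 also: stock transfer was 7.5 nL into about 10 µL; 0% = median of vehicle wells and 100% = median of positive control wells; one replicate is shown; the record names a cut of 25% in any replicate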
# Target sequence (Q9QR71 whole entry, looked up): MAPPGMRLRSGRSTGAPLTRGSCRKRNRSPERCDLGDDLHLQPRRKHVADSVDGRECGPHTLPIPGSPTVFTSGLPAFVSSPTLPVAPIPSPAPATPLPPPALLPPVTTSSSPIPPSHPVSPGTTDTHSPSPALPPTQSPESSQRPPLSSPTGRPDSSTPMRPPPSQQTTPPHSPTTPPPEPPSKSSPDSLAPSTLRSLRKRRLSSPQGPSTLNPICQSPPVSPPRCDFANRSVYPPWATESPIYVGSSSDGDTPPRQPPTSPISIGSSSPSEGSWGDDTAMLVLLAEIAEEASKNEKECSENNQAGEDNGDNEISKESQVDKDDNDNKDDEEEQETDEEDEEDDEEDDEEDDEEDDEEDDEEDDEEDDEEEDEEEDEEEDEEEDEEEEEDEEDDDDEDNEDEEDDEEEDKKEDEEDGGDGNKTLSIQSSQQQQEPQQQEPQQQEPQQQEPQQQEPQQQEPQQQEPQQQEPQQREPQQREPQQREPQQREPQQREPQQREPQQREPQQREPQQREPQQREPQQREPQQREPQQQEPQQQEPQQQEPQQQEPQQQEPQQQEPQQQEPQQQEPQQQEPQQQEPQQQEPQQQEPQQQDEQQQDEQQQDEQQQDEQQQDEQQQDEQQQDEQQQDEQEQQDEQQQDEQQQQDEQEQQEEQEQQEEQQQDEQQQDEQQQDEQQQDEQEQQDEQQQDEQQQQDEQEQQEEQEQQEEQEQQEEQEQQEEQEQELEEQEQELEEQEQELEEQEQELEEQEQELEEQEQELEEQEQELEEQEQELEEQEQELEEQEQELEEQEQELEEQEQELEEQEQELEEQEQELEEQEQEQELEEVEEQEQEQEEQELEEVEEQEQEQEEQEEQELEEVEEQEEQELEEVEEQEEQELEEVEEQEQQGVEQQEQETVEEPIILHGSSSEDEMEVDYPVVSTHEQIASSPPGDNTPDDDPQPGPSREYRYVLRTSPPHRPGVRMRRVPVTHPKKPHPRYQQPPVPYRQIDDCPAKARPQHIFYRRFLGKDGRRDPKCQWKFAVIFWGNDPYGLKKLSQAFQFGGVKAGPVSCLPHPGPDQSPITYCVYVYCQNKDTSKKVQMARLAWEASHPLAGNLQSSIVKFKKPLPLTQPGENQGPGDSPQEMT
# RanGTP-Imp inh: disruptors of Ran-importin-beta complex formation – biochemical, FRET, CFP-Ran, YFP-importin-beta, homogeneous, primary screen; cell-free CFP-Ran/YFP-importin-beta FRET ratio; inhibition, % (test concentration not listed); 1.1% of 300,000 active; AID 2216;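 active = most replicates above 15%; inconclusive = exactly half above 15%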;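 also: 0% = DMSO wells and 100% = Ran loaded with GDP instead of GTP; wells of about 40 µL received 100 nL stock; the first replicate is given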
# Calb FLC: affects C. albicans growth with fluconazole. C. albicans CaCi-2 (fluconazole-resistant clinical isolate) + fluconazole, Alamar Blue growth, 48 h. growth inhibition, % (concentration not given with the values). 0.57% of 300,000 active;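 active = most replicates above 75%; inconclusive = exactly half above 75%; inactive = most below 75%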;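 also: all wells also contain fluconazole at 8 µg/ml as a sub-toxic cotreatment; 0% = median of DMSO wells and 100% = median of geldanamycin control wells; wells of about 8 µL received 7.5 nL stock; the first replicate is given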
# ALR inh: human ALR oxidase inhibition via reduced H2O2; P55789; inhibition, % (concentration not given with the values); 3.8% of 290,000 active; purified ALR, DTT oxidation, H2O2 HRP-luminol luminescence;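 active = mean and each replicate at 75% or more; inconclusive = only one of the two met; inactive = neither met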;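 also: stock transfer was 7.5 nL into about 7.5 µL; 0% = neutral wells and 100% = wells with inactivated enzyme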
# Vif A3G: inhibitors of Vif binding to APOBEC3G peptide, primary screen, biochemical, TR-FRET, GST-Vif 1-94, biotin-A3G peptide, dose response retest (AID 1117319) | 0.57% of 260,000 active | inhibition, %, or IC50 in µM where a hit was titrated | TR-FRET GST-Vif / biotin-A3G peptide binding; higher % means a stronger effect; test concentration not given here; strong numbers were not always called active;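 active = above the screen mean plus three standard deviations and confirmed in dose response; inconclusive = results disagree or hit not tested in dose response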;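 also: Vif residues 1-94 fused to GST binding biotinylated APOBEC3G peptide 110-148; 0% = full assay without inhibitor and 100% = GST in place of GST-Vif; retest series ran down from 100 µM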
# HNF4A DNA FP: change in binding of human HNF4 alpha to DNA; P41235; HNF4a-FITC DNA binding, fluorescence polarization, 1 h; activity change, % at 10 µM; 0.3% of 360,000 active; in the data active = activity change above about 30%, passing the limit was not always enough;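 also: controls were the assay level and a saturating level of protein; the project sought stronger binding though the title names inhibitors; some compounds called inactive have numbers as strong as hits; positive values seem to mean higher polarization but the record does not say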
# B2AR ag: agonists of human beta-2 adrenergic receptor inducing internalization; P07550; Am2.2-beta2AR cells, FAP receptor internalization, flow cytometry; reference of the scale not given here; response, % (concentration not given with the values); 0.43% of 340,000 active; AID 504454;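 active = response above a set limit, near 3 SD of response in nonfluorescent compounds, cut at about 42% in these data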;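 also: stock transfer was 100 nL into about 11 µL; a reference agonist was the positive control; negative values mostly stem from fluorescent compounds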
# The depositor's hits bear a star; u = inconclusive; x = no result given; & = joins results of further samples.
Compound	LANA-H2B inh	RanGTP-Imp inh	Calb FLC	ALR inh	Vif A3G	HNF4A DNA FP	B2AR ag
CC(C)c1ccc(C2NC(=S)NC3=C2C(=O)CCC3)cc1 (centres undefined)	3.6	0.4	19	-18	-17%	-0.7	-2
COc1ccccc1NC(=O)Nc1nc(CC(=O)Nc2ccc(F)cc2)cs1	4.1	-4.2	-2	-1	-3%	3.1	1
COCCN(Cc1cc2cc3c(cc2n2nnnc12)OCO3)C(=O)c1ccccc1F	-4.6	-4.7	4	2	-5%&-18%	2.6	0
O=C(Nc1nc(-c2ccc(Cl)cc2)cs1)c1cccnc1	-4.8	3.3	-7	-9	-18%	-2.6	-6
CCCn1c2ccccc2c2cn[nH]c(=O)c21	-2.5	2.6	7	35	-1%	0.4	-1
CC(NC(=O)COC(=O)CCC(=O)c1ccc(F)cc1)c1ccccc1 (centres undefined)	-5.5	x	x	2	x	-1.2	-3
CCC(Sc1ncccn1)C(=O)Nc1cc(C)on1 (centres undefined)	-4.1	-2.8	-1	-7	-7%	-4.4	1
O=C(CSc1ccccc1)Nc1ccccc1C(=O)N1CCCC1	3.2	-0.8	-1	-1	2%	7.1	7
O=C(CC(NCCN1CCOCC1)C(=O)O)Nc1cccc(Cl)c1 (centres undefined)	-3.0	0.7	91*	0	x	-0.3	-2
Cc1nnc(SCC(=O)Nc2sc3c(c2C(N)=O)CCC(C)C3)[nH]c1=O (centres undefined)	-4.7	x	x	45	9%	2.2	8
CCCCC(=O)Nc1ncc([N+](=O)[O-])s1	-2.6	4.1	83*	x	7%	5.0	1
COC(=O)CCn1nnc(-c2ccc(C)cc2)n1	2.5	2.4	u	-13	-3%	3.7	6
CN(C(=O)c1coc(=O)c2ccccc12)c1ccc(Br)cc1	0.4	-3.1	-3	-3	x	-1.9	-2
CN1Cc2cc(C(=O)c3cc(Cl)cc(CSc4ncccn4)c3O)cnc2NC1=O	0.1	-4.2	-7	-1	16%	x	x
Cc1cccc(Oc2nc(CN3CCOCC3)nc3sc4c(c23)CCCC4)c1	-8.2	-0.5	-7	9	-1%	4.4	-13
Cc1ccc(C(=O)OCC(=O)c2c[nH]c3ccccc23)cc1	-4.6	2.4	-9	-7	x	3.0	-1
Cc1ccc(S(=O)(=O)NNC(=O)c2ccncc2)cc1	-2.0	2.6	6	67	x	1.2	2
c1ccc2c3c([nH]c2c1)C1(CCCCC1)NCC3	0.0	-2.2	-2	29	5%	0.8	-2
Nn1cnnc1N/N=C/c1cc([N+](=O)[O-])c(Cl)cc1Cl	0.1	2.0	-1	-27	u	2.2	-6
Nc1ccc(Cc2ccccn2)cc1	0.2	3.9	-1	7	12%	3.3	-3
COc1cccc(CNCC(O)COc2ccc(C(=O)c3ccccc3)cc2)c1 (centres undefined)	0.1	-1.4	27	-2	x	2.9	-21
COC(=O)c1ccccc1S(=O)(=O)N1CCC(C(=O)OCc2ccc([N+](=O)[O-])cc2)CC1	-0.6	0.1	-5	0	-9%	-1.6	5
Cc1nc2c(cc1C(=O)N/N=C/c1ccc(O)c(O)c1)c(=O)n(C)c(=O)n2C	-5.7	-0.4	18	31	x	2.8	5
CC(C)(C)N1CC(c2nc3ccccc3n2Cc2ccc(Cl)cc2)CC1=O (centres undefined)	-6.1	5.9	50	-14	6%	-0.9	-7
COc1ccc(NC(=O)CSc2nc(NS(=O)(=O)c3ccc(C)cc3)cc(=O)[nH]2)cc1	-3.0	0.4	7	99*	5%	-0.6	1
Cc1nc(NC(=O)CN(C)S(=O)(=O)c2ccc(Br)cc2)sc1C	5.8	2.1	-4	-5	1%	2.5	-5
CC(C)CC(COCc1cccc(Cl)c1)N1CCN(C(=O)c2cccc(C(F)(F)F)c2)CCC1=O (centres undefined)	6.6	6.4	16	2	u	0.4	-11
Nn1c(SCC(=O)Nc2ccc(OC(F)F)cc2)nnc1-c1ccco1	0.7	1.1	7	-23	-1%	1.0	-6
COc1cc(/C=C/C(=O)O)cc(S(=O)(=O)Nc2ccc3[nH]c(=O)[nH]c3c2)c1OC	0.2	u	0	-8	u	-3.0	3
CCOC(=O)Cn1c(=O)c2c(nc(Br)n2CC(=O)OCC)n(C)c1=O	-2.5	-3.0	-10	-2	0%	-1.3	0
COc1ccc(NC(=O)CN(C)CC(=O)Nc2ccc(Cl)cc2[N+](=O)[O-])cc1	1.3	-1.9	13	-67	3%	0.3	3
COc1ccccc1C(=O)NNC(=O)C1CCCO1 (centres undefined)	-11	2.3	3	1	x	3.0	7
COC(=O)C1=C(C)Nc2nnnn2C1c1cccs1 (centres undefined)	0.0	0.4	-3	-2	4%	0.8	-8
COc1cc(OC)c(/C=N/NC(=O)COc2cccc3cccnc23)c(OC)c1	5.4	0.7	-10	-2	-3%	-1.3	-3
CCCCC(=O)Nc1ccc(C(=O)NN2C(=O)c3ccccc3C2=O)cc1	3.1	-1.4	-4	4	79%	-1.5	-5
Fc1ccc(N2CCN(c3cnc4ccccc4n3)CC2)cc1	-3.9	1.1	-17	x	x	0.5	11
O=c1c2ccccc2nc(-c2ccc(Cl)cc2Cl)n1O	-5.1	3.6	84*	2	0%	0.0	16
Cc1nnc(SCC(=O)Nc2nc(C(C)(C)C)cs2)s1	-2.4	0.4	-40	x	-6%	3.8	0
O=C(NCCCn1ccnc1)c1cc(C2CC2)on1	-2.2	0.3	0	x	-5%	-0.5	-1
CCCCn1c(=S)[nH]c2cc(S(=O)(=O)N3CCOCC3)ccc21	-3.7	x	x	41	x	2.1	-2
C=CCN1c2ccccc2[C@]23C[C@@H](C(=O)OC)N(C(=O)CC(C)C)C2=NC(C(=O)OC)=C(C(=O)OC)[C@H]13	2.7	3.8	13	4	2%	0.2	0
CC(C)(C)NC(NC(=O)Cc1ccccc1)C(Cl)(Cl)Cl (centres undefined)	8.1	1.7	-19	-1	2%	-1.4	-2
O=C(CSc1cccc2cccc(Cl)c12)OCC(=O)N1CCN(C(=O)c2ccco2)CC1	3.5	1.9	u	-17	24%	-0.6	7
Cn1c(N)c(C(=O)NCc2ccccc2)sc1=S	1.4	-4.1	-6	81*	-3%	9.9	-7
COc1ncnc2c1N=C1CC(C)(C)CC(N)=C1S2	4.1	-7.4	-1	99*	-2%	-14	2
O=C(c1cc(-c2cccs2)nc2ccccc12)N1CCN(S(=O)(=O)c2ccccc2)CC1	0.4	-1.7	10	2	-12%	2.2	-7
CCc1nc(NCCCCCO)c2nnn(Cc3ccccc3F)c2n1	2.9	3.4	0	-1	31%	-3.7	-22
O=C(NNC(=O)c1cccs1)c1ccc(Cl)cc1	-0.6	-1.0	-21	-3	1%	-1.2	5
CCOC(=O)CNc1nc(C(C)(C)C)nc2c1nnn2Cc1ccccc1	1.7	0.6	-4	x	x	1.4	-2
COc1ccc(/C=N/NC(=O)c2nnn(-c3nonc3N)c2-c2cccs2)cc1OC	3.7	3.4	-10	4	x	-1.3	4
CN(C)CCN(CC1CCCN(Cc2ccccc2F)C1)C(=O)c1ccc(F)cc1 (centres undefined)	1.3	7.4	-4	x	x	-5.0	-8
CC(C)NC(=S)NC(=O)c1ccc(-c2ccccc2)cc1	-2.1	0.5	-24	x	x	-1.2	6
COc1cc(-c2nc(-c3ccccn3)no2)cc(OC)c1OC	-7.6	-3.2	31	-1	7%	2.2	-21
COc1ccc(Br)cc1S(=O)(=O)n1nc(C)cc1C	-2.8	-1.5	-2	-5	x	-0.5	-14
Cc1cc(NS(=O)(=O)c2ccc(Br)s2)no1	1.8	4.3	7	0	x	5.1	7
Cc1[nH]c(=O)c(C#N)c2c1CCCC2	-11	3.3	-8	-14	8%	-0.8	-3
COc1cccc(NC(=O)CSc2nnc(CNC(=O)c3ccco3)n2C)c1	x	-2.0	6	x	1%	-1.7	2
Cc1cc(Cl)ccc1OCC(=O)NNC(=O)c1cnccn1	4.9	1.4	u	-1	x	2.1	3
Cc1cc(C(=O)c2ccccc2)c(NC(=O)CCl)s1	0.0	1.6	12	37	x	-1.0	-6
CNS(=O)(=O)c1cn(CC(=O)NCc2ccc(OC)cc2)cc1S(=O)(=O)NC	3.2	6.7	2	-5	-11%	-2.8	-2

# Further entries
Compound	LANA-H2B inh	RanGTP-Imp inh	Calb FLC	ALR inh	Vif A3G	HNF4A DNA FP	B2AR ag
COc1cc2[nH]c(=S)nc(NCc3ccccc3)c2cc1OC	-0.2	2.3	0	-7	-6%	3.4	10
Fc1ccccc1Cc1noc(CN2CCN(C/C=C/c3ccccc3)CC2)n1	-3.7	5.2	0	-8	6%	2.0	-2
COc1ccc(Cn2nnc3c(=O)[nH]c(C4CCN(C(=O)c5ccccc5Cl)CC4)nc32)cc1	-0.9	-1.9	-6	-9	-13%	-3.5	4
CC(C)CCC(C)NC(=O)Cc1ccc(S(=O)(=O)N2CCOCC2)s1 (centres undefined)	7.1	-0.5	-2	-2	-5%	2.3	6
COc1ccc(NC(=O)NC23CC4(C)CC(C)(CC(C)(C4)C2)C3)cc1OC	1.2	0.0	-19	-8	14%	-0.9	6
CCOC(=O)CNc1nc(Cl)nc(Nc2ccc(Cl)cc2)n1	-0.5	4.7	-4	-5	7%	-2.9	-8
CCSc1nnc(NC(=O)Nc2cccc(C)c2)s1	-0.8	-1.6	-19	-2	u	-1.9	14
COc1cc(/C=C2\SC(N)=NC2=O)cc(Br)c1O	1.5	-4.6	-5	-9	-2%	38*	7
COc1cccc(CNc2nc3ccccc3n2CCN2CCCCC2)c1OC	-1.6	x	x	99*	-2%	-0.8	-18
CC(C)(C)C(=O)C(Cc1ccccc1)n1cncn1 (centres undefined)	3.5	-1.0	-159	-3	-5%	2.2	5
NNC(=O)C1CC1c1ccccc1 (centres undefined)	-0.1	u	-3	2	x	1.4	2
CC1CN(C(=O)COC(=O)CSc2ccc([N+](=O)[O-])cc2)CC(C)O1 (centres undefined)	x	x	x	x	-3%	-0.3	6
Cc1nn(C)cc1C(C(=O)NC1CCCCC1)N(C(=O)Cc1cccs1)c1ccc(Cl)cc1 (centres undefined)	-0.5	2.1	-3	13	-2%	-1.6	6
CC(=O)Nc1ccc(S(=O)(=O)NNC(=O)C(=O)NNc2ccccn2)cc1	-3.8	0.2	-3	x	u	-0.1	2
CCOC(=O)CC(=O)CSc1nc(C)cc(-c2cccnc2)c1C#N	1.6	-5.3	-1	3	14%	4.1	1
COc1ccc(OC)c(Nc2cc(C)nc3ccc(C)cc23)c1	-1.8	-1.6	1	9	x	4.3	0
CCOC(=O)c1ccc[n+](CC(=O)Nc2cc(C(F)(F)F)ccc2Cl)c1	2.4	-2.2	5	-21	-5%	3.6	2
O=C(Nc1cc2c3c(c1)CC(=O)N3CCC2)c1ccco1	8.9	-4.7	4	-3	1%	0.9	-13
COCCn1nnnc1C(c1ccc(OC)cc1)N1CCN(c2ccccc2F)CC1 (centres undefined)	-5.2	1.8	-13	-1	u	1.6	3
CCCc1nnc(NC(=O)CCC(=O)N2CCN(Cc3ccc(Cl)cc3)CC2)s1	2.6	-0.1	x	1	x	3.4	2
c1ccc(Cn2c(CSc3nnnn3-c3ccccc3)nc3ccccc32)cc1	0.2	3.9	12	0	2%	5.6	-6

# Screening results from PubChem.
